# VDR inhibitor – Inhibitors of the vitamin D receptor (VDR): qHTS; Vitamin D3 receptor (Homo sapiens), P11473; VDR-SRC2-3 peptide fluorescence polarization, 2 h; Potency, µM, for the others: max response, negative = inhibition, actives largely listed as inhibitors; 400,000 compounds, 0.93% hits; AID 504847, 2011; active = well fitted inhibition curve with a large enough effect; inconclusive = small, poorly fitted or top-dose-only effect, or another doubt; inactive = no such curve, though single readings can be large or run the other way; also: series mostly up to about 120 µM
# Target sequence (P11473 whole entry, looked up): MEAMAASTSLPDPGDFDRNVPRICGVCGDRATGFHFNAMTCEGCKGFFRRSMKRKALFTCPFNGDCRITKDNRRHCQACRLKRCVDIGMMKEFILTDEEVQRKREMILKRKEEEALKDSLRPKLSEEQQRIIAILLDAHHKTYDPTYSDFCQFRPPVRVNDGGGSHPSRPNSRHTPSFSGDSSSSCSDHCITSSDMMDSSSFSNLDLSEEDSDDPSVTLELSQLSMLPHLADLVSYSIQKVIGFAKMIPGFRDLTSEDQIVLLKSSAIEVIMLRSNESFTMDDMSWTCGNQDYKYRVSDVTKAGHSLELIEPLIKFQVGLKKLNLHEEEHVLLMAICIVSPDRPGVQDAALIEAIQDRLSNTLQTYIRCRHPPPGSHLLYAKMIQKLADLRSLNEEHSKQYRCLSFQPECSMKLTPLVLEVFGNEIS
#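 After 23 nl compound addition and a short centrifugation, plates sat for 2 hours at ambient temperature; polarization of fluorescence then indicated loss of VDR binding to peptide SRC2-3.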
# Starred values were filed as active, the others as inactive; ? = inconclusive; & = joins results of further samples. % is scaled to controls: 0 for no effect and ±100 for the full control effect; potency is read from the fitted curve at half-maximal effect. An excerpt (hit frequency here may not be typical).
SMILES,VDR inhibitor
CCCCC(CC)C/C=C1\CC(C(=O)OCC)Oc2ccccc21 (configuration not stated) (tested in a mixture with another compound),-5.8%
O=C(CSc1cn(Cc2cccc(F)c2)c2ccccc12)NCc1ccc(F)cc1,-4.4%
COc1ccc(C(=O)Cn2c(=O)oc3ccc(C)cc32)cc1,?
CS(=O)(=O)c1ccc(N2CCN(c3ccccn3)CC2)c([N+](=O)[O-])c1,2.8%
COc1cc(/C=N/NC(=O)c2ccc(CSc3nc4ccccc4[nH]3)cc2)ccc1O,12.3%
C/C(=N\NC(=O)c1ccc(=O)[nH]n1)c1cccnc1,-0.7%
COc1ccc(S(=O)(=O)N2CCC3(CC2)OCCN3S(=O)(=O)c2cccs2)cc1OC,11.8%
CCOc1ccccc1N(C(=O)CNC(=O)c1ccco1)C(C(=O)NC1CCCC1)c1cccnc1 (configuration not stated),-4.5%
C=CCNC(=O)c1onc(CSc2cc(C)ccc2C)c1C(=O)O,-11.1%
CC(C)CC(=O)NC(NC(=S)Nc1cccc2cccnc12)C(Cl)(Cl)Cl (configuration not stated),0.0%
CC(=O)Oc1cc(O)c2c(c1)OC(c1ccc(OC(C)=O)c(OC(C)=O)c1)C(OC(C)=O)C2=O (configuration not stated),19.3%
N=c1sccn1CC(=O)NC(c1ccccc1)c1ccccc1,-1.1%
COc1ccccc1CN1CC(C(=O)NC2(c3ccccc3)CC2)CCC1=O (configuration not stated),-11.4%
CN(C)c1ccc(C(=O)NNC(=O)Nc2ccccc2)cc1,14.2%
COc1ccc(CNC(=O)CCn2nc(C)c3c(C)n(-c4ccccc4)nc3c2=O)c(OC)c1,-5.8%&-3.2%
O=C(COc1ccccc1)N(Cc1cccc(F)c1)C1CCS(=O)(=O)C1 (configuration not stated),2.5%
CCc1ccc(CCC(=O)Nc2ccc(C(C)=O)cc2)o1,-8.3%
O=C(NC1(C(F)(F)F)C(=O)Nc2c1c(=O)[nH]c(=O)n2-c1ccccc1)c1ccncc1 (configuration not stated),10.8%
O=C(Cn1cc(C(=O)COc2ccccc2)c2ccccc21)NCc1ccco1,-5.1%
CCCn1c(=N)c(C(=O)NCc2ccco2)cc2c(=O)n3cc(C)ccc3nc21,-13.0%
C#CCNC(=O)C1=C[C@H](c2ccc3c(c2)OCO3)[C@@H](CCCO)[C@H](OCC)O1,-13.4%
CN(C(=O)c1cccc(NC(=O)Cc2ccc(NC(=O)C3CCCN(C(=O)C4CCCCC4)C3)cc2)c1)C1CC1 (configuration not stated),-18.3%
CC1=CS/C(=C(/C#N)C(=O)N2CCCCC2)N1c1ccccc1,11.3%
O=C(NCCCCc1ccccc1)Nc1cccc(F)c1,3.5%
COc1ccc(/C(O)=C2/C(=O)C(=O)N(CCN(C)C)C2c2ccc(C)cc2)cc1Cl (configuration not stated),-15.0%
O=C(NCCS(=O)(=O)N1CCN(c2ccc(F)cc2)CC1)c1cc(=O)c2ccccc2o1,15.6%
Cc1nc2ccccc2c(=O)n1CCCN1CCOCC1,-19.3%
CCOC(=O)c1ccc(NC(=O)Cn2nc(C)c3nn(-c4ccc(Cl)cc4)c(C)c3c2=O)cc1,15.7%
COc1ccc(NC(=S)NN2C(C)CCCC2C)cc1 (configuration not stated),-10.5%
O=C(CC1N=C2c3ccccc3N=C(SCc3cccc(F)c3)N2C1=O)NCc1cccs1 (configuration not stated),2.4%
N#Cc1ccc(Cn2c(=O)oc3ccccc32)cc1,?
OCCNCCCCOc1ccc(F)cc1,5.0%
O=C(Nc1ccc2c(c1)OCO2)C1CCN(S(=O)(=O)c2cccs2)CC1,5.7%
CS(=O)(=O)N1CCc2cc(C(=O)O)ccc21,4.5%
Cc1cc(C)nc(SCc2nc3nc(C)cc(C)n3c2Br)n1,-8.6%
O=C(Nc1ccc(Cl)cn1)c1cc2c(s1)-c1ccccc1OC2,-3.9%
CC(C)(C)NC(=O)C(Cc1ccccc1)NS(=O)(=O)c1ccc2c(c1)CCC(=O)N2 (configuration not stated),12.9%
O=C(CCSCCc1ccccn1)Nc1c(F)cc(F)cc1Br,-8.4%
N#CC1=C2SCN(Cc3ccco3)CN2C(=O)CC1c1c(F)cccc1Cl (configuration not stated),?
Cc1ccc(S(=O)(=O)NCC(=O)N(CC(=O)NCc2ccco2)C2CCCC2)cc1,5.4%
O=C(C[n+]1ccn(CCCNP2(=O)C=C(c3ccccc3)OC(c3ccccc3)=C2)c1)c1cccs1,4.8%
COc1ccc(N=C(C)C2=C(O)c3ccccc3C2=O)cc1,19.9%
O=C(NCCc1ccc2c(c1)OCCO2)c1cc(S(=O)(=O)N2CCCC2)ccc1Cl,1.9%
O=C(Cn1c(=O)oc2ccccc21)NCc1ccccc1Cl,10.8%
O=C(CSC1CS(=O)(=O)c2cc([N+](=O)[O-])ccc21)NNC(=O)c1ccccc1 (configuration not stated),11.8%
O=[N+]([O-])c1cc(/C=N/O)ccc1SCc1ccccc1Cl,-2.7%
COc1cc(/C=N\NS(=O)(=O)c2ccccc2)cc(OC)c1OC,-2.7%
CN(C)c1ccc(C2OC(=O)C3(CCCC3)C(=O)C2(C)C)cc1 (configuration not stated),-0.1%
Cc1ccc(NC(=S)NNC(=O)CCn2cc(C)cn2)cc1,16.3%
O=c1c2ccccc2n2c(-c3ccc(F)c(F)c3)nnc2n1CCc1ccccc1,19.2%
O=C(O)c1cc(-c2ccccn2)n[nH]1,4.9%
COc1ccc(OC)c(NC(=O)CSc2nnc3ccc(-c4ccncc4)nn23)c1,0.6%
COc1cc2cc(CCCO)oc(=O)c2cc1OC,3.6%
CCn1c(=O)cc(OCC(=O)N2CCN(c3ccc(OC)cc3)CC2)c2ccccc21,2.5%
C1=C(c2sc3ccccc3c2-c2ccc(OCCN3CCOCC3)cc2)CCCC1,-3.3%
CC(C)(C)c1ccc(OCC(=O)Nc2c(C(=O)c3ccc(F)cc3)oc3ccccc23)cc1,-9.0%
CN(C)CCC(c1ccccc1)c1ccccn1 (configuration not stated),-6.2%&11.4%&-3.5%&2.7%&-2.5%&2.1%
CCCN(C(=O)CSc1nnnn1-c1ccccc1OC)C1CCS(=O)(=O)C1 (configuration not stated),-12.6%
Cc1nc(SCC(N)=O)c([N+](=O)[O-])[nH]1,-9.8%
COc1cccc(NC(=O)c2ccc3c(=O)n4nc(Nc5ccccc5OC)sc4nc3c2)c1,13.4%
# Additional results follow.
SMILES,VDR inhibitor
COC(=O)c1ccc(CNC(=O)COC(=O)COc2ccc(OC)cc2)cc1,8.3%
CN1CCN(C(=O)c2cc3c(C(F)(F)F)nn(C)c3s2)CC1,-5.1%
Cc1ccc(-c2noc(-c3nnn(CC(=O)Nc4ccc(C)cc4Cl)c3N)n2)cc1,3.3%
CN(C(=O)c1cccc(NC(=O)Cc2ccc(NC(=O)C3CCCN(C(=O)C4CC4)C3)cc2)c1)C1CCCCC1 (configuration not stated),6.1%
O=C(OCC(O)COC(=O)c1cccnc1)c1cccnc1,1.4%
O=C(Nc1cccc(F)c1)N1CC[C@@]2(CCCN(C(=O)c3csnn3)C2)C1,6.8%
Cc1ccc(-n2c3c(cc(C(=O)NC4CCSC4=O)c2=O)C(=O)CC(C)(C)C3)cc1 (configuration not stated),13.8%
CCN1CCCC1CNS(=O)(=O)c1c(C)cc(C)cc1C (configuration not stated),-7.9%
Cc1ccccc1C(=O)N1CCC(C(=O)OCC(=O)Nc2cccc([N+](=O)[O-])c2C)CC1,14.4%
CCOC(=O)c1sc(NS(=O)(=O)c2ccc(C)cc2)nc1C,-1.3%
O=C(Nc1ccc(C(=O)N2CCOCC2)cc1)Nc1cccc(C(F)(F)F)c1,-2.9%
O=C(CNC(=O)c1ccc(Cl)cc1Cl)OCC(=O)N1CCCC1=O,-15.8%
O=C(Cc1ccc(Cl)cc1)NCCS(=O)c1ccc(Cl)cc1 (configuration not stated),-11.6%
Cc1cccc(NC(=O)CSc2nc(=O)n(Cc3ccncc3)c3c2CCC3)c1C,5.1%
CC(=O)OCC1=C(C(=O)O)N2C(=O)C(NC(=O)c3ccc(COc4ccc(Cl)cc4)o3)C2SC1 (configuration not stated),44.7µM*
CCOC(=O)N1CCN(C(=O)CSc2nc3c([nH]c4ccccc43)c(=O)n2CC)CC1,-9.4%
CCC(C)n1c(=O)c2sccc2n2c(CCCC(=O)NCc3ccccc3Cl)nnc12 (configuration not stated),11.5%
Cc1ccc(N(Cc2ccccc2O)C(=O)c2ccccc2F)cc1,-3.3%
Cc1ccc(S(=O)(=O)c2nc(-c3ccccc3)oc2N2CCCCCC2)cc1,1.8%
CCOc1cccc(N(C(=O)Cc2cccs2)C(C(=O)NC2CCCCC2)c2cccn2C)c1 (configuration not stated),9.1%
CCOC(=O)c1cc(/C(C)=N/OC(=O)c2ccc(Cl)cc2)on1,9.9%
OC(CNCC1CCCO1)COc1ccc(OCC(O)CNCC2CCCO2)cc1 (configuration not stated),12.4%
CC(=O)NC(Cc1ccccc1)C(=O)NC(Cc1ccccc1)C(=O)O (configuration not stated),-8.9%
Cc1ccc(C(=O)Nc2ccc3nccnc3c2)cc1,-8.2%
CCOC(=O)c1scc(-c2ccccc2)c1S(=O)(=O)N1CCN(c2ccccc2OC)CC1,9.8%
CCOC(=O)C1(Cc2cccc(OC)c2)CCN(Cc2ccc(OC)c(OC)c2)CC1,-13.3%
O=C(Cc1ccc(F)cc1)Nc1nnc(SCC(=O)N2CCCCC2)s1,-7.9%
COc1ccc(S(=O)(=O)NN(C)C)cc1N(C)S(=O)(=O)c1ccc(Cl)cc1,1.5%
COc1ccccc1CN(C)C(=O)c1cnc(C)cn1,-6.2%
CCOc1ccc2ccccc2c1/C=N/NC(=O)c1ccc(C)nc1,7.6%
O=C(O)c1cccc(NS(=O)(=O)c2ccc3c(c2)C(=O)c2ccccc2C3=O)c1,-15.3%
O=C(NCc1cccnc1)C1CCN(S(=O)(=O)c2cccnc2)CC1,2.9%
Cc1ccc(N2C(=O)[C@@H]3[C@H](C2=O)[C@H]2C=CC=NN2[C@@H]3C(=O)Nc2ccccc2)cc1,-13.9%
Cc1ccc(-c2nnn(CC(=O)N(c3ccccc3)C(C(=O)NC3CCCC3)c3ccncc3)n2)o1 (configuration not stated),8.1%
Cc1ccc(C2c3c(oc4cc(C)c(C)cc4c3=O)C(=O)N2CCCN2CCOCC2)cc1 (configuration not stated),-6.6%
CSc1ccccc1NC(=O)CSc1nnc(COc2ccccc2)o1,-7.1%
COc1ccc(CCNC(=O)C2CCN(S(=O)(=O)c3ccc4c(c3)oc(=O)n4C)CC2)cc1OC,2.7%
NC(=O)c1sc2nc3c(c(-c4cccs4)c2c1N)CCCCC3,-5.9%
Cc1nn(CC(=O)Nc2ccccc2C(F)(F)F)c(=O)c2cccn12,-16.2%&5.9%
CC12CCC(C(=O)Nc3c(Cl)cccc3Cl)(C(Br)C1=O)C2(C)C (configuration not stated),-4.9%
Cc1ccc(C)c(OCCC(=O)OCC(=O)N2c3ccccc3NC(=O)C2(C)C)c1,9.6%
Cc1cccc(-c2nc3c(c(SCC(=O)N4CCOCC4)n2)COC(C)(C)C3)c1,10.2%
Nc1c(C(=O)Nc2ccc(Cl)cc2F)sc2nc(-c3cccs3)ccc12,8.5%
CCOc1cc(S(=O)(=O)NCc2ccccn2)ccc1Cl,4.6%
O=C(c1cnn(-c2ccc(F)cc2)c1-n1cccc1)N1CCN(c2ccccc2)CC1,-6.1%
CCc1ccc(NC(=O)CSc2nnc(C3CC3)n2CC2CCCO2)cc1 (configuration not stated),4.0%
Cc1ccc2oc(-c3cccc(NC(=O)c4sc5c([N+](=O)[O-])cccc5c4Cl)c3)nc2c1,2.4%
CCOc1ccc(C(=O)NCCc2cnc[nH]2)cc1,3.0%
CCNc1nc(NC(C)C)nc(OCCOC(=O)c2ccccc2)n1,-16.5%
Cc1cc(C)cc(NS(=O)(=O)CCCS(=O)(=O)Nc2cc(C)cc(C)c2)c1,9.1%
N#CCOC(=O)c1sccc1-n1cccc1,6.4%
COc1ccc(C2CC(c3cccs3)=NN2C(=O)CSC2=NN3CCCC(=O)N=C3S2)cc1 (configuration not stated),-12.0%
CCCCn1c(N)c(N(CCOC)C(=O)C(C)Oc2ccc(Cl)cc2)c(=O)[nH]c1=O (configuration not stated),14.0%
COc1ccccc1-c1nccc(N2CCN(C)CC2)n1,10.6%
Cc1ccc(-c2nnc(Nc3ccccc3)c3ccccc23)cc1S(=O)(=O)NCc1nc2ccccc2[nH]1,-5.9%
COc1ccc(Nc2c3c(nc4ccccc24)CCC3)c(OC)c1,-5.2%
CC1CC(C)CN(C2CCCCC2NS(=O)(=O)c2ccc(Cl)cc2)C1 (configuration not stated),-16.7%
Cc1ccc(S(=O)(=O)N2CCCCC2)cc1C(=O)OC(C)C(=O)NC1CCCCC1C (configuration not stated),-1.8%
